Source: PubChem BioAssay
CSC inhib: cancer stem cell viability inhibitors, primary screen, luminescence | cancer stem cell-like cells viability | inhibition, % at 7.5 µM | 300,000 compounds, 1.1% hits;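 active = mean at 75% or more and at least half the replicates too; inconclusive = mean and replicates disagree; tested in HMLE shEcad cells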;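 also: 0% = median of negative and 100% = median of positive control wells; the first replicate is given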
UUG fidelity: modulators of yeast start codon fidelity, primary screen, whole organism, S. cerevisiae, single point, plate reader | S. cerevisiae UUG-firefly luciferase reporter, luminescence/redox ratio | activity score, % at 18.7 µM | 350,000 compounds, 0.13% hits;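 active = replicate mean at a twofold rise or more, about +100% in these data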;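 also: firefly luciferase made from a UUG start codon reports start codon fidelity; reporter light over untreated wells divided by growth signal over untreated wells; some hits fall short of that in this replicate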
Rce1 inhib: yeast Rce1p protease inhibitors, primary screen, biochemical, fluorescence, cell-free homogeneous; CAAX prenyl protease 2 (Saccharomyces cerevisiae (strain ATCC 204508 / S288c)), Q03530; yeast membranes, quenched prenylated peptide cleavage fluorescence; calls only; 290,000 compounds, 0.27% hits; AID 2563, 2010;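 active = fall in fluorescence gain of 50% or more versus controls, with final raw signal at or below 3038400; inconclusive = same 50% fall but final raw signal above 3038400; inactive = fall in fluorescence gain under 50%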;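 also: plate controls were neutral control wells for no effect and wells lacking membranes for full effect; tested at 10 µM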
Target sequence (Q03530 whole entry, looked up): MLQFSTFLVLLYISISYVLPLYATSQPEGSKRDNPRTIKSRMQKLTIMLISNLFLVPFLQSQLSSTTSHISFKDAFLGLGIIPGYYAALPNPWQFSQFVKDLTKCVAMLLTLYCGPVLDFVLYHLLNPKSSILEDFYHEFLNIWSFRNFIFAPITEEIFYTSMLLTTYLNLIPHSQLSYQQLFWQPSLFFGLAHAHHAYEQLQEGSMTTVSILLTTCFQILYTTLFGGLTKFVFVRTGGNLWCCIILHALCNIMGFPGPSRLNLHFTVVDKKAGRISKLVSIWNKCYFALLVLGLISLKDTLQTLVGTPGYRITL
PABP FP inh: PABP poly(A) RNA binding inhibitors, primary screen, biochemical, fluorescence polarization, uHTS | Polyadenylate-binding protein 1 (Homo sapiens), P11940 | inhibition, % at 35 µM | AID 2014, 2009 | 290,000 compounds, 1% hits;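 active = 50% or more with normal probe brightness, or confirmed in later tests; inconclusive = above 50% with abnormal brightness, or retests that disagree; inactive = below 50% or failed in later tests; about a fifth of its hits are not listed in these tables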;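 also: calls also rest on retests at 20 µM and on dose response follow-up; controls were probe without protein and protein plus probe with vehicle; some compounds called inactive have numbers as strong as hits; many hits fall short of the cut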
MT1-MMP act inh: blockers of MT1-MMP proenzyme processing, primary screen, HT1080 RFP-PRO-GFP cells, GFP/RFP fluorescence | Matrix metalloproteinase-14 (Homo sapiens), P50281 | 360,000 compounds, 0.061% hits | GFP/RFP ratio fluorescence, overnight; percent of plate control window, DMSO zero | GFP/RFP ratio change, % at 20 µM;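 active = GFP/RFP ratio change of at least 30% with cell ATP level not reduced by more than half and red fluorescence within 50% of control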; also: strong numbers were not always called active
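Assay system: HT1080 RFP-PRO-GFP cells. Benchmarks: DMSO vehicle wells and RFP-L50D-GFP reporter cell wells. Times: overnight cell settling, then overnight compound exposure, 37 °C, 5% CO2. Compound: 20 µM single dose, 1% DMSO. Read-out basis: GFP/RFP fluorescence ratio.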
Env fusion inh: inhibitors of HIV-1 Env-driven cell-cell fusion, primary screen, HeLa-JRFL effector, CEM21 target cells, luciferase; inhibition, % at 12.3 µM; AID 651610, 2012; 360,000 compounds, 1.1% hits;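 active = mean replicate inhibition score of at least 50 and every replicate individually at or above 50; inconclusive = only one of the two criteria met; inactive = mean below 50 and not all replicates reaching 50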;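 also: 0% = plate neutral controls and 100% = maraviroc near 300 nM; one replicate is shown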
eIF4H FP inh: human eIF4H binding inhibitors, primary screen, translation initiation inhibitor project, biochemical, uHTS, fluorescence polarization; AID 2012, 2009; inhibition, % at 35 µM; eIF4H fluorescence polarization binding assay; Eukaryotic translation initiation factor 4H (Homo sapiens), Q15056; 290,000 compounds, 0.94% hits;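 active = 50% or more with normal probe brightness, or confirmed in later tests; inconclusive = above 50% with abnormal brightness, or retests that disagree; inactive = below 50% or failed in later tests; about a fifth of its hits are not listed in these tables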;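 also: calls also rest on retests at 20 µM and on dose response follow-up; 0% = protein and probe with vehicle and 100% = probe without protein; strong numbers were not always called active; many hits fall short of the cut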
eIF4H FP inh retest: recorded beside eIF4H FP inh, whose call it bears; inhibition, %; compound at 20 µM; confirmation average;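 mean of two retest wells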
PABP FP inh retest: further read-out of PABP FP inh, marked with its call; inhibition, %; compound at 20 µM; confirmation repeats;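 mean of two retest wells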
MT1-MMP act inh RFP: also measured in MT1-MMP act inh; calls as there; RFP signal change, %; measured here: RFP expression control read;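 0 = vehicle wells; hits needed this value within 50% of zero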
An asterisk follows results filed as active; i = inactive; u = inconclusive; x = not tested or not shown; & = joins results of further samples. Outcome played no part in choosing rows; any-hit rate near 2.9%.

SMILES | CSC inhib | UUG fidelity | Rce1 inhib | PABP FP inh | MT1-MMP act inh | MT1-MMP act inh RFP | Env fusion inh | eIF4H FP inh | others
COc1cc(CN2CCN(C(=O)c3ccc(-c4ccccc4)cc3)CC2)cc(OC)c1OC | -5 | 7 | i | 10 | 3 | -1 | 16 | -2
CC(NC(=O)NC(=O)c1ccc(Cl)cc1)c1ccccc1 (stereo unspecified) | 6 | -14 | i | -7 | 5 | -4 | -25 | 16
O=C(NC1=NCCS1)C1COc2ccccc2O1 (stereo unspecified) | x | -80 | i | -10 | 2 | 5 | 98* | -4
Cc1cc(C)c(C(=O)COC(=O)C2CCN(c3ccc(C(F)(F)F)cn3)CC2)c(C)c1 | x | 0 | x | x | 0 | -1 | 5 | x
CC1CC(C)CN(C(=O)c2ccc(CSc3nc4ccncc4[nH]3)cc2)C1 (stereo unspecified) | -20 | -11 | i | 10 | -1 | -13 | 26 | -4
O=C(NCC(=O)N1CCN(Cc2ccc3c(c2)OCO3)CC1)c1ccccc1F | x | 2 | x | x | 1 | 3 | -1 | x
CCn1nc(C(=O)OCC(=O)NCCN2C(=O)CSC2=O)c2ccccc2c1=O | -1 | 0 | i | 12 | -16 | 4 | -221 | 0
COC(=O)c1ccc(C2/C(=C(\O)c3cccc(OC)c3)C(=O)C(=O)N2CCCN2CCOCC2)cc1 (stereo unspecified) | -13 | x | i | -6 | 3 | 5 | 35 | -2
CC1=C(C(=O)N2CCOCC2)C(c2cccc(C)c2)NC(=S)N1 (stereo unspecified) | -15 | -4 | i | -11 | -4 | 3 | -9 | -9
C#CCOCCOCCOCCNc1nc(N2CCN(C(=O)[C@H](CC(N)=O)n3cc(C(N)[C@H](C)CC)nn3)CC2)nc(N2CCN(C(=O)[C@H](CC(N)=O)n3cc(C(N)[C@@H](C)CC)nn3)CC2)n1 (stereo partly specified) | x | 108* | x | x | 3 | 3 | -3 | x
O=c1cc(CN2CCCCCCC2)c2c(ccc3ccccc32)o1 | x | -4 | x | x | -1 | -4 | -3 | x
COc1ccccc1NC(=O)CN1CCN(c2ccccc2OC)CC1 | x | x | i | -7 | 2 | -5 | -1 | -7
CC(=O)C1=C(C)NC(=O)NC1c1cccs1 (stereo unspecified) | -3 | -5 | i | 6 | -4 | 3 | x | 5
CCSc1nnc2c(n1)[nH]c1c(C)cccc12 | 4 | -13 | i | 3 | -4 | -26 | x | 6
COc1ccc2nc(NC(=O)CCNS(=O)(=O)c3ccc4c(c3)oc(=O)n4C)sc2c1 | -5 | -5 | i | 4 | -2 | -3 | -9 | 3
Cc1ccc(NC(=O)COC(=O)c2cccc(OC(F)F)c2)cc1S(=O)(=O)N1CCCCC1 | -4 | -43 | x | x | 4 | 3 | -5 | x
N#Cc1cccc(NC(=O)c2ccccc2C(=O)O)c1 | -7 | 6 | i | 1 | 7 | 8 | -32 | -4
NCC(c1ccccc1Cl)c1c[nH]c2ccccc12 (stereo unspecified) | 13 | 2 | i | 5 | -3 | 1 | 13 | 8
COc1cccc(-c2cn3nc4c(nc3n2)CCCC4)c1 | 10 | -29 | i | 44 | -10 | 9 | x | -13
Fc1ccc(-c2nc3ccccc3[nH]2)cc1 | 12 | x | i | 6 | 5 | 1 | -41 | 4

Fetched by structure from above:
SMILES | CSC inhib | UUG fidelity | Rce1 inhib | PABP FP inh | MT1-MMP act inh | MT1-MMP act inh RFP | Env fusion inh | eIF4H FP inh | others
CC1=C(C(=O)N2CCOCC2)C(c2cccc(C)c2)NC(=S)N1 (stereo unspecified) | -15 | -4 | i | -11 | -4 | 3 | -9 | -9
COc1cccc(-c2cn3nc4c(nc3n2)CCCC4)c1 | 10 | -29 | i | 44 | -10 | 9 | x | -13

Going on with the list.
SMILES | CSC inhib | UUG fidelity | Rce1 inhib | PABP FP inh | MT1-MMP act inh | MT1-MMP act inh RFP | Env fusion inh | eIF4H FP inh | others
COc1ccc(Cn2c(C3CC3)nc3ccc(NC(=O)c4ccco4)cc3c2=O)cc1 | 20 | -6 | i | 3 | 5 | -4 | x | -3
Cc1ccc(C2(c3ccccc3)NC(=O)N(CC(=O)NCc3ccco3)C2=O)cc1C (stereo unspecified) | x | 1 | x | x | 0 | -1 | 5 | x
Cc1ccc(C(=O)Nc2cccc(C(F)(F)F)c2)cc1NC(=O)c1cnnc2ccccc12 | -9 | -18&-12 | i | -8 | 6&8 | -3&0 | 45 | -9
O=C(NC(=O)N1CCN(c2ccc([N+](=O)[O-])cn2)CC1)c1c(Cl)cccc1Cl | -11 | x | i | 2 | x | x | x | -3
CCCCn1c(-c2cccc(C)c2)nc2cc3[nH]c(=O)c(C(C)C)nc3cc21 | 76* | -23 | i | 19 | -1 | 0 | -6 | 34
O=C(COc1cccc(Cl)c1)Nc1nc(-c2ccc(S(=O)(=O)N3CCOCC3)cc2)cs1 | x | -6 | i | -8 | -4 | -20 | x | -9
O=C(Oc1ccc2ccccc2c1Cl)N1CCCC1 | 17 | -1 | i | 9 | 3 | -1 | -124 | -12
Oc1c(/C=N/c2ccccn2)sc2ccccc12 | 14 | -35 | i | -14 | 10 | 12 | -2 | -6
CCOc1ccc(C(=O)NCC(=O)NNC(=O)C2COc3ccccc3O2)cc1OCC (stereo unspecified) | -2 | -6 | i | x | -1 | 2 | 6 | x
COc1ccc(-c2noc(CCCC(=O)NCc3ccco3)n2)cc1OC | x | 0 | i | -2 | 1 | 0 | -11 | -8
O=C(NN(C(=O)c1ccccc1)c1cccs1)c1ccccc1 | x | -10 | x | x | 1 | 1 | -12 | x
COC(=O)C(CCSC)NC(=O)c1cn(-c2ccc(OC)cc2)c(=O)c2ccccc12 (stereo unspecified) | -19 | -9 | i | 6 | -3 | 0 | 9 | -4
COc1ccc2oc(C(=O)OC(C)C(=O)N(C)c3ccccc3)c(C)c2c1 (stereo unspecified) | 3 | -6 | i | x | 3 | 2 | -50 | x
CCOC(=O)N1CCC(NC(=O)CSCc2nc(-c3ccccc3Cl)oc2C)CC1 | 5 | -5 | i | 9 | 1 | -7 | 3 | -13
CC(=O)c1sccc1NC(=O)c1ccccc1C(=O)O | -15 | -8 | i | 5 | 2 | 5 | -12 | 3
COc1ccccc1OC(C)C(=O)Nc1ccc2c(c1)n(C)c(=O)n2C (stereo unspecified) | -16 | 6 | i | -1 | 3 | 3 | 3 | -1
O=C(Nc1ccc(N2CCOCC2)cc1N1CCOCC1)c1ccc([N+](=O)[O-])cc1 | x | -17 | i | -4 | 1 | 1 | x | -10
O=C1CCCN1CCCNc1ncnc2c1cnn2-c1ccc(Cl)cc1 | -2 | -7 | i | 3 | -5 | -16 | 11 | 1
COc1ccc(C(=O)c2ccc(N3CCOCC3)c([N+](=O)[O-])c2)cc1 | -13 | -14 | i | -3 | 2 | -4 | 15 | 2
COc1ccc(OC)c(NC(=O)NC2CCCCCCC2)c1 | -18 | 2 | i | -4 | -3 | -4 | x | -6
O=C(CN1CCCC1)Nc1ccccc1Sc1ccccc1 | -11 | -6 | i | -7 | 2 | 1 | -7 | 2
CCOC(=O)Cn1c(=N)n(Cc2ccccc2)c2ccccc21 | 14 | -11 | i | 1 | -2 | 4 | x | -11
Cc1cc(NC(=O)COc2coc(CN3CCN(c4ccccc4)CC3)cc2=O)no1 | -5 | -4 | i | x | 2 | 4 | 6 | x
Cc1noc(C)c1NC(=O)Nc1cccc2c1O[C@H](CN(C)S(=O)(=O)c1cccs1)[C@@H](C)CN([C@H](C)CO)C2=O | x | -8&-10 | x | x | 5 | 8 | -40 | x
COc1ccc(-c2ccccc2)cc1NC(=O)c1ccncc1 | 2 | x | i | x | 0 | -2 | 10 | x
COc1ccccc1OCCCCN1CCC(C)CC1 | -7 | -19 | i | 11 | 3 | 3 | -5 | 4
O=C(Cc1cccs1)N1CCN=C1SCc1ccc(Br)cc1 | -5 | x | i | -19 | 6 | 1 | 6 | 2
Cc1nn(-c2ccccc2)cc1C(c1c(N)[nH]c(=S)[nH]c1=O)c1c(N)[nH]c(=S)[nH]c1=O | -4 | x | i | -9 | 2 | 1 | -1 | -1
Nc1cc2c(cc1[N+](=O)[O-])OCO2 | -10 | x | i | 41* | 6 | 5 | 3 | 84 | eIF4H FP inh retest=27;PABP FP inh retest=73*
Cc1cc(OCC(=O)Nc2cc(-c3nn4c(C)nnc4s3)ccc2C)ccc1Cl | -23 | -4 | x | -5 | -3 | 2 | -4 | -12
CCOC(=O)/C=C1\SCC(=O)N1CC(=O)c1ccc[nH]1 | -7 | -4 | i | -4 | -8 | -3 | -54 | 74 | eIF4H FP inh retest=-15;PABP FP inh retest=-1
Cc1c(C(=O)OCC(=O)N(CCC#N)c2ccccc2)oc2c1ccc1ccccc12 | 34 | -17 | i | -6 | 4 | -4 | 8 | -4
CCC(C(=O)NCCc1ccccc1OC)n1nc(C)c2c(C)n(-c3ccccc3)nc2c1=O (stereo unspecified) | -15 | 3 | i | 1 | 2 | -5 | 8 | -7
CCCC(c1nnnn1Cc1ccco1)N1CCN(c2ccccc2)CC1 (stereo unspecified) | -9 | x | i | 23 | 2 | 3 | -14 | 1
CCOc1ccc(NC2=NCC(=O)N2CCc2ccccc2)cc1 | -12 | -21 | i | 21 | -1 | 2 | 15 | -5
CN(C(=O)COC(=O)c1cnc(Cl)c(Cl)c1)C1CCCCC1 | 11 | 4 | x | x | -8 | -1 | -5 | x
CCCCn1c(-c2ccncc2)nc2c1c(=O)[nH]c(=O)n2CC(C)C | -15 | -1 | i | -7 | 5 | 0 | x | -6
COc1ccc(NC(=O)CCC2CCCCC2)cc1S(=O)(=O)N1CCCCC1 | 1 | x | i | -10 | -8 | -23 | 29 | -7
O=C(Nc1nnc(CCN2CCCCC2)s1)c1cccc(Cl)c1 | 8 | x | i | 0 | -1 | -1 | -2 | -9
Cc1c(CCC(=O)N[C@@H](C)C(=O)O)c(=O)oc2cc3oc4c(c3cc12)CCCC4 | -8 | -9 | i | 10 | -2 | 0 | 18 | 2
CCN(CC)c1ccc(/C=N/N=C(c2ccccc2)c2ccccc2)c(O)c1 | 61 | x | i | 2 | -6 | 1 | -13 | 1
COc1ccccc1CNC(=O)c1ccc(N2CCOCC2)c([N+](=O)[O-])c1 | -2 | x | i | 0 | 4 | -1 | 2 | 8
COc1ccc(C2=NO[C@@H]3[C@@H]4C[C@@H]([C@H]5C(=O)N(C)C(=O)[C@@H]45)[C@H]23)cc1 | -13 | x | i | 1 | 3 | -1 | 4 | 7
Cc1ccc(S(=O)(=O)N2CCCCC2)cc1NS(=O)(=O)c1cccc(C(=O)O)c1 | -29 | x | i | 0 | -1 | 0 | -3 | -6
COc1ccc(N(CC(=O)Nc2c(C)n(C)n(-c3ccccc3)c2=O)S(=O)(=O)c2ccc(C)cc2)cc1OC | 3 | -4 | i | -2 | 0 | 0 | -4 | -4
Cc1ccc(S(=O)(=O)c2c(N)n(NC(=O)C3CC3)c3nc4ccccc4nc23)cc1 | 3 | -3 | u | 2 | 3 | 3 | 23 | -1
